High-throughput results deposited in PubChem BioAssay by several laboratories.
MT stabilizer: stabilizes microtubules in HeLa cells; hit rate 0.83% among 200,000; % tubulin-high responders, % at 10 µM; AID 2205; HeLa tubulin immunostaining HCS, 24 h; share of cells brighter than vehicle mean+2SD;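 active = plate Z-score above 3 for both tubulin-high and condensed-nucleus cell shares, with cell loss under 80%, at 10 µM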;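 also: anti alpha tubulin signal scored within the nucleus-defined area of each cell; some results filed as inactive read as strong as hits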
Yfh1-depleted yeast: mitochondrial function rescue without frataxin homolog – Friedreich's ataxia, plus single-dose screen, dose response (AID 1465). S. cerevisiae Yfh1-off respiration, WST-1 reduction, 72 h; higher fold induction means a stronger effect. hit rate 0.074% among 220,000. fold induction at 50 µM; hits with a dose series show EC50 in µM;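 active = fold induction of absorbance versus untreated yeast above a set limit, then at least 30% activation at any dose in follow-up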;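 also: activators that raise dye reduction in frataxin-depleted yeast; strong numbers were not always called active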
Autophagy HCS: alters autophagy in cells. MEF GFP-LC3 puncta imaging; test concentration mostly 10 µM. calls only at 10 µM (by protocol). hit rate 0.98% among 190,000. AID 463193;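 active = percentage of spot-positive cells more than 3 SD above its plate mean, without a fluorescence outlier flag or 80% toxicity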;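 also: spot-positive cell cutoff set from DMSO-treated cells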
M17LAP inhibition: P. falciparum M17LAP inhibitors, primary screen, biochemical, fluorogenic H-Leu-NHMec substrate, 1536-well (AID 1619). inhibition, % at 30 µM; hits with a dose series show IC50 in µM. recombinant M17LAP, H-Leu-NHMec fluorogenic kinetic assay; higher % means a stronger effect. hit rate 0.38% among 220,000;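 active = compound inhibiting the enzyme by more than half at any dose during confirmatory dose-response retesting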;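 also: plate controls were full reaction with DMSO carrier for no effect and no enzyme background for full effect; strong numbers were not always called active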
Dynein transport: blocks dynein driven cargo transport along microtubules | hit rate 0.47% among 220,000 | AID 1381 | z-score, hits read low | 3617.4 mouse cells, GR-EGFP nuclear translocation imaging; test concentration mostly 20 µM; stimulated with dexamethasone, 1 µM; active compounds read low;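 active = plate z-score of nuclear minus cytoplasmic receptor signal below a set negative limit, without overly bright fluorescence or cell loss, cut at about -3.5 in these data, passing the limit was not always enough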;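 also: z-score of nuclear minus cytoplasmic ring GR-EGFP intensity difference per well; some compounds called inactive have numbers as strong as hits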
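Also added – dexamethasone, 1.0 µM final · Buffer or medium – tet-free, stripped-serum medium · Schedule – induction 48 h, compound 1 h, agonist 30 min · Detection – formaldehyde fixation, Hoechst nuclear stain, 10x automated fluorescence imaging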
Insulin prom up: MIN6 insulin promoter up-regulation | MIN6 insulin promoter-GFP reporter, high-content imaging; active compounds read high | z-score at 5 µM | hit rate 0.3% among 190,000 | AID 1625;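 active = z-score above 3 at 5 µM with at least 500 cells counted in the well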
Dynein transport cytoplasmic EGFP: also measured in Dynein transport; calls as there; z-score; measured here: cytoplasmic GR-EGFP intensity; active compounds read high
Dynein transport nuclear GR-EGFP: also measured in Dynein transport; calls as there; z-score; measured here: nuclear GR-EGFP intensity;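 lower value marks the stronger effect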
Dynein transport cell count: further read-out of Dynein transport, marked with its call; z-score; measured here: cell count per field
Insulin prom up cell count: further read-out of Insulin prom up, marked with its call; cell count; measured here: cytotoxicity, nuclei count;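 total cells summed across four imaged fields per well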
MT stabilizer Hoechst-high %: recorded beside MT stabilizer, whose call it bears; % Hoechst-high responders; measured here: nuclear condensation Hoechst responders;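 share of cells brighter than vehicle mean plus two SD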
MT stabilizer cytotoxicity %: second read-out of MT stabilizer, no call of its own (marks repeat the call); toxicity, %; measured here: cytotoxicity by cell density;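 0% = mean cell density of plate MIN control wells and 100% = no cells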
Autophagy HCS cell loss 18 h: recorded beside Autophagy HCS, whose call it bears; toxicity, %; measured here: cell loss, nuclei count;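 cell loss after 18 h compound exposure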
* marks the source's active call; other numbers are inactive results; i = inactive; nt = no result given; + = active, no number.

SMILES	MT stabilizer	MT stabilizer Hoechst-high %	MT stabilizer cytotoxicity %	Yfh1-depleted yeast	Autophagy HCS	Autophagy HCS cell loss 18 h	M17LAP inhibition	Dynein transport	Dynein transport cytoplasmic EGFP	Dynein transport nuclear GR-EGFP	Dynein transport cell count	Insulin prom up	Insulin prom up cell count
COCCCNC(=O)CC(NS(=O)(=O)c1ccc(C)cc1)c1ccc(OC)cc1 (stereo not given)	1.4	0.9	0.2	i	i	-2	-1%	-0.8	0.0068	-0.55	1.6	-0.56	849
CCN(CC(=O)Nc1ccc(N2CCOCC2)cc1)Cc1nc2ccccc2c(=O)[nH]1	3.3	2.3	0.3	i	i	5	8%	-0.057	-0.15	-0.68	-0.54	-0.41	1566
O=C(Nc1cccc(Cl)c1)OCc1cn(-c2ccc(Cl)cc2)nn1	1.8	1.8	4.4	nt	i	-9	-9%	0.13	-0.21	-0.17	0.33	-0.49	1315
O=C(Cn1c(=O)oc2ccccc21)NC(=O)NCc1ccccc1	2.3	1.8	8.3	i	i	3	5%	0.17	-0.24	-0.84	0.19	0.5	1617
COc1ccc(N2C(=O)CSC23CCC(C(C)(C)C)CC3)cc1 (stereo not given)	2.7	2.0	2.6	i	i	-5	-3%	-0.24	-0.21	-0.75	0.39	0.87	1699
Cc1n[nH]c(=S)c2nn(-c3ccccc3)c(C)c12	1.8	2.3	7.1	nt	i	8	3%	-0.054	-0.14	0.41	-0.67	-0.11	1590
CCc1nc(SCC(=O)c2cccs2)c2oc3ccccc3c2n1	2.2	1.4	8.5	i	i	-22	0%	0.44	-0.21	1.2	0.25	-1.3	1442
Cc1ccc(-n2c(Cc3cccn3C)nnc2SCC(=O)N2CCc3ccccc32)cc1	6.6	5.7	12	i	i	-4	6%	0.9	-0.34	0.51	0.13	-0.55	1219
C=C(C)C1Cc2nc(N)nc(C)c2C1 (stereo not given)	2.5	1.3	5.0	i	i	12	3%	-0.79	-0.26	-0.53	0.5	0.14	1650
CCCc1noc2c1/C(=N\O)CCC2	3.3	1.7	0.7	i	i	3	12%	0.34	-0.23	-0.7	0.2	-0.22	1628
Cc1ccnn1CC(=O)N/N=C/c1ccco1	3.1	2.0	1.2	i	i	-9	8%	0.51	-0.085	-0.0089	-1.1	-0.17	1627
Cc1ccc(NC(=O)c2ccc(S(=O)(=O)N3CCCCC3)cc2)cc1	2.1	1.4	3.3	i	i	6	1%	-0.65	-0.22	-0.95	0.16	-0.34	1693
O=C1NCCCC1C(=O)Nc1ccccc1C(F)(F)F (stereo not given)	3.0	1.7	0.1	i	i	-5	-4%	1.3	-0.041	0.14	-1.3	-0.56	1561
Cc1ccc(S(=O)(=O)Nc2nc(C)cc(NCCN)n2)cc1	2.0	1.2	2.9	i	i	-2	-6%	-0.55	-0.22	-0.42	0.9	-0.4	964
COc1ccccc1CCN1C(=S)NC(C)(C)CC1(C)O (stereo not given)	3.2	2.1	2.6	i	i	-8	8%	-0.44	-0.17	-0.84	-0.13	-0.23	1594

Reformatted with values under each structure: entries from further up.
Below each SMILES – MT stabilizer	MT stabilizer Hoechst-high %	MT stabilizer cytotoxicity %	Yfh1-depleted yeast	Autophagy HCS	Autophagy HCS cell loss 18 h	M17LAP inhibition	Dynein transport	Dynein transport cytoplasmic EGFP	Dynein transport nuclear GR-EGFP	Dynein transport cell count	Insulin prom up	Insulin prom up cell count
- O=C(Nc1cccc(Cl)c1)OCc1cn(-c2ccc(Cl)cc2)nn1
    1.8	1.8	4.4	nt	i	-9	-9%	0.13	-0.21	-0.17	0.33	-0.49	1315
- Cc1ccnn1CC(=O)N/N=C/c1ccco1
    3.1	2.0	1.2	i	i	-9	8%	0.51	-0.085	-0.0089	-1.1	-0.17	1627

(listing goes on)
SMILES	MT stabilizer	MT stabilizer Hoechst-high %	MT stabilizer cytotoxicity %	Yfh1-depleted yeast	Autophagy HCS	Autophagy HCS cell loss 18 h	M17LAP inhibition	Dynein transport	Dynein transport cytoplasmic EGFP	Dynein transport nuclear GR-EGFP	Dynein transport cell count	Insulin prom up	Insulin prom up cell count
O=C(NC(=S)Nc1ccc(N2CCCCC2)c(Cl)c1)c1ccc2c(c1)OCCO2	33	12	33	nt	i	-7	5%	0.9	-0.014	1.2	-0.12	-1	1542
N#CC1=C(N)Oc2c(oc(CO)cc2=O)C12C(=O)Nc1ccc(Cl)cc12 (stereo not given)	2.5	3.2	7.3	i	i	7	6%	-0.38	-0.23	0.043	0.52	0.27	1130
CCCCn1c(SC(C)C(=O)c2ccc(OC)cc2)nc2cc(S(N)(=O)=O)ccc21 (stereo not given)	2.9	1.9	2.1	i	i	4	4%	-0.54	-0.21	-0.92	0.0016	-0.6	1603
COc1cc(CNCCN2CCOCC2)ccc1OCc1ccc(Cl)cc1Cl	4.3	2.1	0.6	i	i	-30	-3%	0.73	0.14	0.97	-0.47	-0.3	1064
O=C(Nc1ccc(Cl)cc1)OCc1cn(-c2ccc(Cl)cc2)nn1	1.6	0.6	3.9	i	i	-4	-9%	-0.55	2.4	0.021	-0.29	0.78	1568
CCCCCn1nc(-c2ccccc2)c2nc3ccccc3nc21	3.5	1.9	6.8	i	+	1.9*	-5%	-0.29	-0.19	-0.87	0.16	nt	nt
COc1cccc(SCc2noc(C(=O)NCC3CCCO3)c2C(=O)O)c1 (stereo not given)	2.0	1.9	4.8	i	i	0	27%	0.13	-0.22	-0.66	-0.49	-0.18	1561
Cc1ccc(S(=O)(=O)N2CCN(c3nc(C)nc4sc5c(c34)CCC(C)C5)CC2)cc1 (stereo not given)	1.9	1.8	8.7	i	i	4	-4%	-0.18	-0.14	-0.11	-0.26	-0.29	1604
CCOc1cc(C)c(Cl)cc1S(=O)(=O)N(C)C	2.1	2.3	4.6	i	i	-7	-9%	-0.27	-0.27	-0.2	0.61	-0.16	1175
CCCSc1nc(SCC(=O)NCc2ccccc2)c2c3c(sc2n1)COC(C)(C)C3	3.9	1.3	2.9	i	i	2	-14%	-0.087	-0.27	-0.68	0.049	-0.84	1380
COc1ccc(OC)c(NC(=O)CSCc2cnn(-c3ccccc3)c2-n2cccc2)c1	5.3	5.1	10	i	i	-13	0%	2	-0.19	0.98	-0.78	-1.1	1635
O=C(Nc1c(C(=O)N2CCOCC2)cnn1-c1ccccc1)c1ccco1	4.5	3.7	5.9	i	i	-8	-1%	-0.99	-0.29	-0.36	0.42	-0.31	1533
Cc1ccc(NC(=O)CSc2nnc(Cn3cnc4ccccc43)o2)c(C)c1	3.4	1.7	9.8	i	i	1	43%	-0.47	0.2	-0.87	-0.0025	1.3	1437
Cc1cc[n+](CC(=O)Nc2cc(C(F)(F)F)ccc2Cl)cc1	0.6	1.7	8.5	i	i	-6	5%	-0.67	-0.015	-0.47	1.2	-0.28	1646
CC(C)c1ccc2c(c1)C(c1ccc(N3CCOCC3)cc1)=NNC(c1cccs1)=N2	1.7	1.3	9.4	i	i	-19	-3%	-1.7	-0.14	-0.8	0.55	-1.6	1591
O=C(NCc1ccccc1)c1cnc2n(c1=O)CCS2	3.0	1.6	4.8	i	i	11	-2%	-0.9	-0.31	-0.12	0.43	-0.11	1637
O=C(Cc1cccs1)NNC(=S)NCc1ccc(Cl)cc1	1.5	1.6	2.4	i	i	1	1%	0.0096	-0.18	-0.13	0.31	0.46	1598
CCOc1cc2[nH]c(=S)n(CCCC(=O)NCc3ccco3)c(=O)c2cc1OCC	1.8	1.5	3.6	i	i	-4	5%	-0.13	-0.035	-0.16	0.1	-0.36	1582
CN1CCc2c(c3ccccc3n2Cc2ccccc2)C1	1.7	3.5	4.0	i	i	17	1%	1.2	0.036	0.9	-1	2.1	947
CCN(CC)S(=O)(=O)c1cc(-c2nn(C)c(=O)c3ccccc23)ccc1C	0.4	1.3	11	i	i	-5	-3%	0.099	-0.33	0.23	-0.46	0.12	1478
CCOc1cc(/C=N/O)ccc1OS(=O)(=O)c1ccc(C)cc1	2.8	2.2	0.4	i	i	-15	12%	0.13	-0.18	-0.26	-0.87	1.1	1138
COC(=O)CSc1nc(C)cc(C(F)(F)F)c1C#N	2.3	1.8	5.4	i	i	-26	6%	-0.39	-0.17	0.54	0.73	-0.47	1688
Cc1ccc(-c2noc(CN(C(=O)C34CC5CC(CC(C5)C3)C4)C(C)C)n2)cc1	1.7	3.0	16	i	i	-29	3%	0.79	0.24	0.18	0.35	-0.15	1687
CCN(CC)CCNC(=O)C1CCC(=O)N(c2ccc(OC)cc2)C1c1ccc(F)cc1 (stereo not given)	3.2	1.1	0.5	i	i	-3	-8%	0.26	-0.14	-0.019	0.51	0.42	1563
CCN(CC)CCN1C(=O)C(=O)/C(=C(/O)c2cccc(OC)c2)C1c1ccccn1 (stereo not given)	3.1	2.4	3.6	i	i	10	8%	-1.1	-0.34	-0.47	0.71	1.7	1487
CNC(=O)/C(C#N)=c1\s/c(=C/C(=O)OC)c(=O)n1-c1ccccc1	2.0	1.4	5.9	i	i	1	4%	-0.28	-0.2	-0.32	0.092	-0.72	1642
OCC1N=C(c2ccccn2)OC1c1ccccc1 (stereo not given)	4.1	3.0	7.2	i	i	-4	6%	-0.087	-0.33	0.04	0.063	-0.06	1616
CCOC(=O)C1CCN(C(=O)C23CC4CC(CC(C4)C2)C3)CC1	3.1	1.1	5.3	i	i	-2	7%	-0.37	-0.15	-0.0015	-0.016	0.72	1527
Cc1ccc(NC(=O)N/C=C/c2ccc(Cl)cc2)cc1	1.8	1.4	6.5	nt	i	-31	4%	0.19	-0.093	0.76	0.26	-0.25	1433
Cc1occc1C(=O)NCc1ccccc1	2.9	1.2	0.8	i	i	-6	15%	-0.21	-0.2	-0.79	0.22	0.38	1471

Among those listed so far, seven contain an aryl thioether with sulfur outside any ring:
SMILES	MT stabilizer	MT stabilizer Hoechst-high %	MT stabilizer cytotoxicity %	Yfh1-depleted yeast	Autophagy HCS	Autophagy HCS cell loss 18 h	M17LAP inhibition	Dynein transport	Dynein transport cytoplasmic EGFP	Dynein transport nuclear GR-EGFP	Dynein transport cell count	Insulin prom up	Insulin prom up cell count
CCc1nc(SCC(=O)c2cccs2)c2oc3ccccc3c2n1	2.2	1.4	8.5	i	i	-22	0%	0.44	-0.21	1.2	0.25	-1.3	1442
Cc1ccc(-n2c(Cc3cccn3C)nnc2SCC(=O)N2CCc3ccccc32)cc1	6.6	5.7	12	i	i	-4	6%	0.9	-0.34	0.51	0.13	-0.55	1219
CCCCn1c(SC(C)C(=O)c2ccc(OC)cc2)nc2cc(S(N)(=O)=O)ccc21 (stereo not given)	2.9	1.9	2.1	i	i	4	4%	-0.54	-0.21	-0.92	0.0016	-0.6	1603
COc1cccc(SCc2noc(C(=O)NCC3CCCO3)c2C(=O)O)c1 (stereo not given)	2.0	1.9	4.8	i	i	0	27%	0.13	-0.22	-0.66	-0.49	-0.18	1561
CCCSc1nc(SCC(=O)NCc2ccccc2)c2c3c(sc2n1)COC(C)(C)C3	3.9	1.3	2.9	i	i	2	-14%	-0.087	-0.27	-0.68	0.049	-0.84	1380
Cc1ccc(NC(=O)CSc2nnc(Cn3cnc4ccccc43)o2)c(C)c1	3.4	1.7	9.8	i	i	1	43%	-0.47	0.2	-0.87	-0.0025	1.3	1437
COC(=O)CSc1nc(C)cc(C(F)(F)F)c1C#N	2.3	1.8	5.4	i	i	-26	6%	-0.39	-0.17	0.54	0.73	-0.47	1688

Only part of the results is shown (hit frequency here may not be typical).
